Compound activity deposited in PubChem by National Center for Advancing Translational Sciences (NCATS).
Vaccinia Venus – inhibitors of vaccinia virus (Venus reporter) | Potency, µM (top dose mostly 36.5 µM), for the others: at the highest dose activity change, negative = inhibition, hits mostly inhibitors | actives 0.46% (n = 330,000) | Vaccinia virus Venus reporter expression, fluorescence; active means well fitted inhibition curve with a large enough effect; inconclusive means small, poorly fitted or top-dose-only effect; inactive means no such curve, though single readings can be large or run the other way; tested in A549 cells; further: nearly all actives have a fitted effect of over 30% in size; inactives centre near -10
VACV mCherry inh – vaccinia inhibition (mCherry reporter) | Vaccinia virus mCherry reporter infection, fluorescence; about a quarter of the inactives have no number | actives 0.63% (n = 310,000) | Potency, µM (series often up to 36.5 µM), for inactives: top-dose activity change, negative = inhibition, usual class: inhibitors; active = well fitted inhibition curve with a large enough effect; inconclusive = small, poorly fitted or top-dose-only effect; inactive = no such curve, though single readings can be large or run the other way; tested in A549 cells; further: nearly all actives have a fitted effect of over 35% in size; inactives centre near -10
Active calls of the source: *; i = inactive; ? = inconclusive; . = no result given; & = joins results of further samples; [ ] = remark or other dose. On the % scale 0 is the no-effect control and ±100 the full control effect; potency means the concentration at half of the fitted maximal effect.

Sequence of screens: Vaccinia Venus | VACV mCherry inh
CC1(C)Cc2c(sc3nnn(Cc4ccc(Cl)cc4)c(=O)c23)CO1
 : -13% | i
Cc1cc(NC(=O)/C=C/c2ccccc2)no1
 : -15% | ?
N#Cc1c(N)n(CCOC(=O)c2ccc(Cl)cc2)c2nc3ccccc3nc12
 : -11% | -15%
CC(C)(C)N(Cc1ccccc1)C(=O)CSc1ncn[nH]1
 : -4% | -7%
CCCCNC(=O)C1(C)CCC(=O)N1CC(F)(F)F (configuration not stated)
 : 2% | 14%
CCc1ccc(CNCc2c(C(=O)O)n(Cc3ccc(C)cc3)c3cc(C)ccc23)cc1
 : ? | ?
CSc1ccc(C(=O)C2CCCN(Cc3cccn3-c3cccnc3)C2)cc1 (configuration not stated)
 : -21% | -28%
N#CC1(NC(=O)CSc2nnc(COc3ccccc3F)n2N)CCCCC1
 : -9% | i
Cn1nc(C(=O)Nc2nc3ccc(S(C)(=O)=O)cc3s2)ccc1=O
 : 4% | .
CC(C)c1ccccc1NC(=O)Nc1ccc(F)cc1F
 : -19% | -8%
Cc1ccc(C(=O)CC2(O)C(=O)N(CCc3ccccc3)c3ccc(Br)cc32)cc1 (configuration not stated)
 : -20% | -24%
CCOC(=O)C1=C(C)NC(C)=C(C(=O)OCC)C1C1=COCCO1
 : -16% | .
O=c1cc2n(c(=O)[nH]1)CCC1=C2CCCC1
 : -11% | i
CCOc1ccc(N(CC(=O)NCc2ccc(OC)cc2)S(=O)(=O)c2c(C)[nH]c(=O)[nH]c2=O)cc1
 : -20%&5% | -8%
O=C(O)c1ccc(N/N=C/c2ccnc3ccccc23)cc1
 : -6%[7.34 µM] | -3%[7.34 µM]
Cc1ccc(/C=N/NC(=O)CCSc2ccccc2)cc1
 : -10% | i
COc1ccc(C(C)(O)c2nc(-c3ccc(F)cc3OC)cs2)cc1 (configuration not stated)
 : -23% | -28%
Cc1ccc(Cn2c(Sc3nnc(C)s3)nc3c2c(=O)[nH]c(=O)n3C)cc1
 : -8% | 19%
Cc1c(NC(=O)c2ccc(Cl)nc2)cccc1-c1nc2cccnc2s1
 : 0%[7.34 µM] | 23%[7.34 µM]
Cc1sc2ncnc(N3CCN(Cc4ccccc4)CC3)c2c1-c1ccccc1
 : 0% | -9%
COc1ccc(NC(=O)COC(=O)c2cc(S(=O)(=O)N3CCCC3)ccc2O)cc1
 : -7% | i
O=C(c1ccccc1)c1ccc(N2CCN(C(=O)c3ccc(F)cc3F)CC2)c(F)c1
 : -25% | -26%
CCOC(=O)C1=C(C)Nc2ccccc2N=C1NC(=O)CCCN1C(=O)c2ccccc2C1=O
 : -13% | -19%
COc1ccc(-c2nc(NC(=O)c3c(C)noc3C)sc2C)cc1
 : -9% | -13%
O=C(CCc1ccccc1)Nc1ccc(F)cc1F
 : -17% | -22%
Cn1c(Oc2ccc(F)cc2)nc2c1c(=O)n(Cc1ccccc1Cl)c(=O)n2C
 : 4% | -15%
O=C(Nc1ccc2c(c1)OCO2)c1cc(C2CCCCN2S(=O)(=O)c2cccs2)on1 (configuration not stated)
 : -14% | i
O=C(O)C1CN(C(=O)c2cccc(Br)c2)C1
 : -7% | i
CC1=C(C(=O)Nc2cc(C(=O)N(C)Cc3ccccc3)ccc2C)SCCO1
 : -4%[7.34 µM] | -18%[7.34 µM]
O=C(CN(c1cccc(C(F)(F)F)c1)S(=O)(=O)c1ccc(Cl)c([N+](=O)[O-])c1)NCc1ccccc1Cl
 : -4% | -13%

Sequence of screens: Vaccinia Venus | VACV mCherry inh
Cc1ccc(C(C)C)c(OCC(=O)N/N=C2\CC(=O)CC(C)(C)C2)c1
 : 12% | -26%
COc1cc(C(=O)Nc2ccc3nn(-c4ccc(F)cc4)nc3c2)cc(OC)c1OC
 : -1% | 1%
CC(=O)OC(C)C[N+](C)(C)C (configuration not stated)
 : -12%&-10% | -13%&-8%
COc1ccc(OCCOc2ccccc2[N+](=O)[O-])cc1
 : -4% | -17%
Cc1ccc(N2C(=O)N(CC(=O)Nc3cc(C)cc(C)c3)C(=O)C2C)cc1 (configuration not stated)
 : -11% | i
Clc1ccc(OCC#CCN2CCOCC2)cc1
 : -13% | i
COc1ccc(N(C(=O)c2cccnc2)S(=O)(=O)c2cccs2)cc1
 : -9% | -14%
CCCCn1c(CCCNC(=O)c2cccc(C)c2)nc2ccccc21
 : -15% | -20%
Fc1cc(F)cc(-c2oncc2-c2nnnn2-c2ccccc2)c1
 : -5% | -3%
Cc1cccc(-c2noc(CN(C(=O)C(c3ccccc3)c3ccccc3)C(C)C)n2)c1
 : -29% | ?
CCOC(=O)Nc1cc2c(C)cc(=O)oc2cc1C
 : -6% | i
O=P(c1ccccc1)(c1ccccc1)C(c1ccco1)N1CCOCC1 (configuration not stated)
 : 18% | 10%
O=C(Cn1nnc(-c2ccc3c(c2)OCO3)n1)N1CCOCC1
 : -19% | .
COc1ccccc1N1CCN(S(=O)(=O)c2ccccc2F)CC1
 : -8% | i
CCOC(=O)C(C)NC(=O)c1c(C)oc2ncn(CC(C)C)c(=O)c12 (configuration not stated)
 : -4% | -13%
CN(CCNC(=O)CN1CCN(Cc2ccccc2Cl)C1=O)Cc1ccccc1
 : -6% | .
CCc1c(C(C)S(=O)(=O)c2ccc(C)cc2)[nH]c(=O)n1-c1ccc(OC(F)(F)F)cc1 (configuration not stated)
 : -7% | i
C#Cc1ccc([C@@H]2C=C(C(=O)N3CCOCC3)O[C@H](OCC)[C@H]2CCCO)cc1
 : -12% | i
COCOCCn1cc(CN2CCS(=O)(=O)N(Cc3ccc(-c4cccc(N(C)C)c4)cc3)C(CC(C)C)C2=O)nn1 (configuration not stated)
 : -10% | -7%
CC(C)CCN1CCC(CN2C(=O)C(=O)NC[C@@H]2CC(C)C)CC1
 : -5% | 10%
COc1ccc(CN2CC(=O)N3[C@H]4c5ccc(OC)cc5OC[C@@H]4[C@H](c4ccccc4)[C@]3(C)C2=O)cc1
 : -26% | -18%
Brc1ccc2c(c1)NC(c1cccnc1)=NC(c1ccccc1)=N2
 : -22% | -22%
N=C1c2ccccc2CN1NC(=O)c1cccc(S(=O)(=O)N2CCOCC2)c1
 : -6% | i
COc1ccc(-c2oc3ccccc3c2C(=O)OCc2ccccc2)cc1
 : -2% | 0%
CCOC(=O)C(C(C)=O)=C1SC2CS(=O)(=O)CC2S1 (configuration not stated)
 : -9% | i
CCCn1c(NC(=O)c2ccc(Cl)c(S(=O)(=O)N3CCCC3)c2)nc2ccccc21
 : 25µM* | 11µM*
CCOC(=O)c1cccc(NC(=O)c2cc(-c3ccc(Cl)s3)nc3ccccc23)c1
 : -8% | -15%
CN1CCn2cnc(C(=O)N[C@@H](Cc3ccccc3)C(=O)OC(C)(C)C)c2C1=O
 : 8% | -15%
COc1ccccc1CNCCS(=O)(=O)NN1CCOCC1
 : -12% | i
CCOc1ccc(NS(=O)(=O)c2ccc(C(=O)NCC3(N(C)C)CCCCC3)cc2)cc1
 : -14% | -12%

Whole records as entered above:
Profile of N#CC1(NC(=O)CSc2nnc(COc3ccccc3F)n2N)CCCCC1 : Vaccinia Venus = -9%; VACV mCherry inh = i
Profile of Cc1ccc(/C=N/NC(=O)CCSc2ccccc2)cc1 : Vaccinia Venus = -10%; VACV mCherry inh = i
Profile of Cc1ccc(C(=O)CC2(O)C(=O)N(CCc3ccccc3)c3ccc(Br)cc32)cc1 (configuration not stated) : Vaccinia Venus = -20%; VACV mCherry inh = -24%

Continuation.
Sequence of screens: Vaccinia Venus | VACV mCherry inh
Cc1ccc(-c2nnc(SCC(=O)Nc3ccc(S(=O)(=O)N4CCCCCC4)cc3)o2)cc1
 : -6% | -12%
CCOC(=O)[C@]12Cc3c(cc(OC)c(OC)c3OC)[C@H]1N(C1CCCCC1)C(=O)c1ccccc12
 : ? | ?
CC(=O)C1CCC2C3CC(C)=C4CC(O)CCC4(C)C3CCC12C (configuration not stated)
 : -17% | -13%
COc1ccc(-c2nc(CN3CCC(C(=O)NCCCOC(C)C)CC3)c(C)o2)cc1OC
 : -7% | -7%
O=C(O)CCCCNCc1ccccc1
 : -10% | i
CC(C)C12CN3CC(C(C)C)(CN(C1)C31C(=O)Nc3ccccc31)C2=O (configuration not stated)
 : -16% | -18%
O=c1c2nncn2c2cc(C(F)(F)F)ccc2n1CCNc1ncc(C(F)(F)F)cc1Cl
 : -14% | i
CC(C)(C)c1ccc(C2C(C#N)=C(N)Oc3n[nH]c(-c4cccnc4)c32)cc1 (configuration not stated)
 : 2% | i
COc1cccc(CNC(=O)C2CCN(C(=O)c3sccc3-n3cccc3)CC2)c1
 : -4% | -11%
Cc1cc(-c2nnc(CCC(=O)NC(C)(C)C34CC5CC(CC(C5)C3)C4)o2)no1
 : -13% | i
CCOC(=O)CC1C(=O)NCCN1S(=O)(=O)c1ccc(OC)cc1 (configuration not stated)
 : 1% | i
Clc1ccccc1NCSC1=NCCS1
 : 13% | -8%
CCOC(=O)n1c(=O)n(Cc2ccc(Cl)c(Cl)c2)c2ccccc21
 : ? | .
COc1ccc(NC(=S)NC(=O)/C=C/c2ccco2)cc1
 : -8% | -17%
Cc1cc(C)c(S(=O)(=O)N(C)Cc2cnn(C)c2)c(C)c1
 : -21% | -1%
COc1ccc(S(=O)(=O)n2nc(C)c(S(=O)(=O)N3CCC(C)CC3)c2C)cc1C
 : -9% | 4%
Cc1ncc2c(c1CNC(=O)c1ccccc1F)CCN(C(=O)c1ccccc1-n1cccn1)C2
 : -3% | -13%
Cc1ccc(/C=N/Nc2nc3ccccc3s2)o1
 : -24% | -27%
COc1ccccc1-c1cc(C(=O)Nc2cccnc2Cl)no1
 : -3% | -9%
Cc1cccnc1C1=NOC(Cc2ccccc2)C(=O)N1C (configuration not stated)
 : 1% | 25%
CCc1ccc(NC(=O)c2[nH]c(C)c(C(C)=O)c2C)cc1
 : -19% | i
CC(=O)c1cccc(NC(=O)c2ccc(-n3c(C)nnc3C)cc2)c1
 : 1% | -3%
O=C(O)c1ccccc1C(=O)Nc1n[nH]c(=S)s1
 : -9% | -13%
O=C(NCc1cccnc1)c1c(F)c(F)c(F)c(F)c1F
 : -25% | ?
Cc1ccc(N2C(=O)CC(Sc3ccccc3C(=O)O)C2=O)cc1C (configuration not stated)
 : -5% | 1%
Cc1cc(-c2ccnc(-n3ncc(C(=O)NCCc4ccncc4)c3C)n2)c(C)s1
 : -1% | -19%
Cc1ccc(-c2nnn3c2nc(N2CCC(C)CC2)c2ccccc23)cc1
 : -4% | -7%
COc1cccc(N2C(=O)CC(NNc3nc4ccccc4s3)C2=O)c1 (configuration not stated)
 : -6%[7.34 µM] | -29%[7.34 µM]
Nc1nc(SCC(=O)Nc2ccc3c(c2)CCC3)n[nH]1
 : -22% | -16%
COc1ccc(C2=NOC(C(=O)NCc3ccc(F)cc3)C2)cc1OC (configuration not stated)
 : ? | -32%

In a second layout: entries from further up
Compound: COc1ccc(S(=O)(=O)n2nc(C)c(S(=O)(=O)N3CCC(C)CC3)c2C)cc1C
  Vaccinia Venus: -9% | VACV mCherry inh: 4%
Compound: Cc1ncc2c(c1CNC(=O)c1ccccc1F)CCN(C(=O)c1ccccc1-n1cccn1)C2
  Vaccinia Venus: -3% | VACV mCherry inh: -13%
Compound: Cc1ccc(/C=N/Nc2nc3ccccc3s2)o1
  Vaccinia Venus: -24% | VACV mCherry inh: -27%

Later entries
Sequence of screens: Vaccinia Venus | VACV mCherry inh
CN(c1ccccc1)S(=O)(=O)c1ccc(C(=O)NCc2cccnc2)cc1
 : -15% | i
COc1ccccc1N=Cc1c(C)[nH]n(-c2ccc(C)cc2C)c1=O
 : -3% | -18%
COCC(=O)NNC(=S)Nc1cccc(C)c1C
 : -7% | -1%
COc1ccccc1CNC(=O)c1cccc(NC(=O)N2CCSc3ncccc32)c1
 : -8% | -6%
O=C(COc1cc(Cl)c(Cl)cc1Cl)Nc1ccc([N+](=O)[O-])cc1Cl
 : -7% | -5%
Cc1ccc(CN2CCC(CNC(=O)Nc3ccc(Cl)cc3)C2)cc1 (configuration not stated)
 : -8% | -10%
O=C(COc1ccc(Cl)cc1)N1CCCC1
 : -8% | -10%
Cc1ccc(Cl)c2sc(N3CCN(C(=O)c4ccco4)CC3)nc12
 : -25% | -26%
O=S(=O)(Nc1ccccc1-c1ccccc1)c1ccccc1
 : -2% | ?
COc1ccc(-c2cc(C(F)F)n3ncc(C(=O)Nc4cc(OC)ccc4OC)c3n2)cc1
 : -7% | -13%
COc1ccc(Br)cc1CNC(=O)C1COc2ccccc2C1 (configuration not stated)
 : -6% | 0%
Cc1ncc(CN2CCCCC2C(=O)Nc2ccc(Oc3ccccc3)nc2)cn1 (configuration not stated)
 : -13% | -22%
O=[N+]([O-])c1cccc(S(=O)(=O)N2CCN(c3nc(-c4cccs4)nc4ccccc34)CC2)c1
 : -12% | -8%
COc1ccc(N2CCN(C(=O)c3sc4nc5n(c(=O)c4c3C)CCC5)CC2)cc1
 : -4% | -21%
CCn1c(SCC(=O)Nc2nccs2)nnc1-c1ccco1
 : -15% | i
CCNC(=O)CSc1nc2ccccc2c(=O)n1OC
 : 5% | -10%[1.46 µM]

Rows are unselected, and some 0.82% of all compounds hit somewhere here.
